ugtP null kill – growth inhibition of S. aureus ugtP deletion strain | S. aureus RN4220 ugtP deletion, OD600 growth, 16 h; some inactives read as strong as hits | growth inhibition, % (no concentration beside the values) | 330,000 compounds, 0.54% hits | AID 1259309;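 active = z-score under -3 and OD600 up to 0.15 on both plates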;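 note: plate controls were untreated wells for no effect and antibiotic for full effect; wells of about 80 µL received 100 nL stock; the first replicate is given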
Bead autofluor – flagged as autofluorescent in microsphere protease counterscreen | compound autofluorescence counterscreen, microsphere flow cytometry; active compounds read high | fluorescence intensity (test concentration not listed) | 360,000 compounds, 3.1% hits | AID 624483;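 active = at least 3 SD above the mean of all compounds, about 16000 in these data; inconclusive = too few beads counted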;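 note: 100 nL of 1 mM stock went into each well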
RN4220 kill – S. aureus RN4220 growth inhibition | OD600, 16 h | inhibition, % (concentration not given with the values) | 330,000 compounds, 0.33% hits | AID 1259311;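 active = z-score of -3 or lower and OD600 up to 0.18 on both plates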;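 note: plate controls were untreated cells for no effect and reference antibiotic for full effect; stock transfer was 100 nL into about 80 µL; one replicate is shown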
PrP 5UTR inh – inhibition of PrP 5' UTR reporter expression; cell-based PrP 5' UTR mRNA reporter, plate reader; inhibition, % (no concentration beside the values); 340,000 compounds, 0.35% hits; AID 488862;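 active = every replicate at 50% or more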;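 note: 0 = median of the neutral control wells; tested in H4 reporter cells; numbers are from one replicate; inactives centre near -14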
BJeLR lethal – kills HRASV12-expressing BJeLR cells; BJeLR (HRASV12) viability, CellTiter-Glo ATP luminescence, 48 h; reference of the scale not given here; inhibition, % (concentration not given with the values); 300,000 compounds, 0.17% hits; AID 1554;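 active = replicate mean above 50%; inconclusive = above 50% but judged a plate artefact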;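 note: 50 nL library stock added to about 25 µL; numbers are from one replicate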
Mtb hypoxia rep – reduces hypoxia-regulated biosensor signal in M. tuberculosis | fluorescence inhibition, % (concentration not given with the values) | 300,000 compounds, 0.1% hits | AID 1159583 | M. tuberculosis hypoxia-regulated fluorescent reporter, fluorescence;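 active = 35 to 45% if threefold the growth effect, above 45% if 1.5-fold the growth effect; inactive = the rest, general growth blockers included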;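 note: wells of about 50 µL received 100 nL stock; 0% = vehicle wells and 100% = reference inhibitor wells; whole bacteria with a GFP reporter of the hypoxia response; strong numbers were not always called active; many hits fall short of the cut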
Mtb hypoxia rep growth – further read-out of Mtb hypoxia rep, marked with its call; growth inhibition, %; measured here: M. tuberculosis growth (absorbance);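 0% = vehicle and 100% = reference antibiotic; read after six days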
The depositor's hits bear a star; ? = inconclusive; nt = no result given.

Every second line gives: ugtP null kill	Bead autofluor	RN4220 kill	PrP 5UTR inh	BJeLR lethal	Mtb hypoxia rep	Mtb hypoxia rep growth
> Cc1cccc(NC(=O)CS(=O)CC(=O)Nc2cnc3ccccc3c2)c1C (configuration not stated)
 : 5	4568	2.5	8	1	-1	-3
> Nc1c(NCCCN2CCOCC2)c2ccccc2oc1=O
 : 3	21802*	4.0	-8	-6	8	2
> COc1ccccc1NC(=O)CSc1nnc(CC(=O)Nc2cccc(C(F)(F)F)c2)n1C
 : -7	20559*	7.4	-25	0	0	8
> Cc1ccc(NS(=O)(=O)c2ccc(C(=O)N3CCOCC3)cc2)cc1
 : 4	?	0.2	-25	-9	-1	5
> CCN(C(=O)COc1nc(C)cc(C)c1C#N)c1ccccc1
 : -2	2941	6.9	-9	-6	4	-5
> Cc1ccccc1CN1CC2CC(c3cnc(N4CCOCC4)s3)N3CCC[C@@]23C1=O (some centres not stated)
 : -3	nt	2.4	nt	nt	8	9
> COc1cccc(NS(=O)(=O)Cc2ccccc2)c1
 : 0	3488	-0.1	-18	3	9	2
> C/C(=N\NC(=O)COc1cccc2ccccc12)c1cccs1
 : nt	4540	nt	-1	1	nt	nt
> CC(=O)c1cccc(NC(=O)C2CC(=O)N(CCc3ccccc3)C2)c1 (configuration not stated)
 : 4	4273	3.1	-38	1	12	11
> O=C(N[C@H]1C/C=C\C(c2ccc(F)cc2)N(Cc2ccccc2)C(=O)C1)OCC1c2ccccc2-c2ccccc21 (some centres not stated)
 : 3	3291	2.9	-32	nt	1	6
> Cc1cccnc1NC(=O)c1ccc2c(c1)OCCO2
 : 14	?	1.7	-58	20	2	3
> CC1CN(C(=O)c2cc(S(=O)(=O)N3CCCC3)ccc2Cl)CC(C)O1 (configuration not stated)
 : 6	5584	6.1	-16	-4	-6	5
> C[C@H](NC(=O)c1[nH]cnc1C(=O)Nc1ccc(CNC(=O)OC(C)(C)C)cc1)C(=O)OCc1ccccc1
 : nt	3797	nt	-14	7	nt	nt
> CC(NCCS(=O)(=O)c1ccc(Cl)cc1)c1cccc(Cl)c1 (configuration not stated)
 : 1	3050	9.9	-5	1	7	0
> O=C(Nc1ccc(N2CCOCC2)cc1N1CCOCC1)c1ccc(F)cc1
 : -1	4074	1.0	-21	nt	3	6
> O=C1CCCc2ccccc2N1Cc1ccccc1Cl
 : 16	2272	-3.1	-16	-5	nt	nt
> N#Cc1ccc2c(c1)nnn2-c1ccccc1
 : 2	6307	7.5	nt	0	12	1
> COc1ccc2c(c1OC)C(=O)OC2Nc1ncc(Br)cc1Br (configuration not stated)
 : 0	9363	5.8	-27	-8	13	10
> CC(=O)N1CCN(c2ccc(NC(=O)c3ccc4c(c3)OCCO4)cc2)CC1
 : 5	8819	1.7	-26	-6	11	0
> Cc1cc(C)cc(NC(=O)N(C)Cc2ccccc2)c1
 : 9	nt	0.4	-21	-8	-7	-4

Continuation:
Every second line gives: ugtP null kill	Bead autofluor	RN4220 kill	PrP 5UTR inh	BJeLR lethal	Mtb hypoxia rep	Mtb hypoxia rep growth
> O=C1c2ccccc2C(=O)N1CCc1nc(-c2ccncc2)no1
 : -3	19470*	3.6	-11	-2	14	11
> CCc1noc(C)c1C(=O)Nc1ccc(F)c(F)c1
 : 6	nt	2.8	2	-15	0	-5
> CN(C)CCCNCCCNC(=O)C(=NO)c1ccccc1
 : 13	nt	2.2	nt	nt	-6	-5
> COCC1CCN(C(=O)c2oc3c(F)cccc3c2C)C1 (configuration not stated)
 : 3	3582	-0.3	-16	7	17	12
> O=C(O)c1ccc(NCc2nc3ccccc3n2Cc2ccccc2F)cc1
 : 9	3227	-2.5	-3	-7	1	9
> COc1cc(CNc2nc3ccccc3s2)cc(OC)c1OC
 : -2	3202	-2.7	-14	3	-1	-5
> COC(=O)c1ccc(C(=O)NC2CCCc3c2cnn3-c2cc(F)cc(F)c2)nc1 (configuration not stated)
 : -1	?	2.6	-38	36	-14	-9
> O=C(NN=Cc1cn(-c2ccccc2)nc1-c1ccccc1)c1ccco1
 : -12	nt	-4.5	nt	nt	7	6
> COC(=O)c1ccc(NC(C)C(=O)OC)c([N+](=O)[O-])c1 (configuration not stated)
 : 6	2478	6.9	-16	-3	7	6
> NS(=O)(=O)c1ccc(NC(=O)CN2C(=O)c3ccccc3C2=O)cc1
 : 5	nt	1.4	-13	-2	-6	1
> CC1=C(C(=O)N2CCOCC2)C(c2ccc(OC(F)F)cc2)NC(=S)N1c1ccccc1 (configuration not stated)
 : 4	3977	5.6	-12	-23	-4	0
> CC1CCN(C(=O)Nc2cccc(NC(=O)N3CCC(C)CC3)c2)CC1
 : -5	4199	-3.3	-23	1	nt	nt
> CN1CCN(C(=O)C2CCN(c3ncc(C(F)(F)F)cc3Cl)CC2)CC1
 : 2	3435	-0.1	-20	6	3	10
> C1CCN(Cc2nnnn2C2CCCC2)CC1
 : 6	8181	0.2	-6	-6	3	2
> COc1ccccc1N=C1SC(C(=O)Nc2ccc(F)cc2)CC(=O)N1C (configuration not stated)
 : 6	3629	-0.9	-29	-4	nt	nt
> CCOCCSc1nc2c(c(-c3cccs3)c1C#N)CC/C2=C/c1cccs1
 : 8	2450	-0.1	-18	-3	-6	-3
> O=c1c(C(c2ccc(Cl)cc2)c2c(O)nc3n(c2=O)CCCS3)c(O)nc2n1CCCS2
 : 2	3586	1.8	-21	-2	-11	-12
> CN(C(=O)COC(=O)/C=C/c1cccs1)C1CCCCC1
 : 3	2919	3.8	-26	nt	2	-1
> CC(C)Cn1c(SCC(=O)N2CCCCC2)nc2ccccc2c1=O
 : 2	8807	2.0	-24	15	10	11
> CCOC(=O)C1=C(C)NC(=S)NC1c1ccc(OC(=O)c2ccco2)cc1 (configuration not stated)
 : -1	10455	3.6	-11	-4	4	1

Ten entries from above, set out differently:
mol,ugtP null kill,Bead autofluor,RN4220 kill,PrP 5UTR inh,BJeLR lethal,Mtb hypoxia rep,Mtb hypoxia rep growth
CC1=C(C(=O)N2CCOCC2)C(c2ccc(OC(F)F)cc2)NC(=S)N1c1ccccc1 (configuration not stated),4,3977,5.6,-12,-23,-4,0
CC1CCN(C(=O)Nc2cccc(NC(=O)N3CCC(C)CC3)c2)CC1,-5,4199,-3.3,-23,1,nt,nt
CN1CCN(C(=O)C2CCN(c3ncc(C(F)(F)F)cc3Cl)CC2)CC1,2,3435,-0.1,-20,6,3,10
C1CCN(Cc2nnnn2C2CCCC2)CC1,6,8181,0.2,-6,-6,3,2
COc1ccccc1N=C1SC(C(=O)Nc2ccc(F)cc2)CC(=O)N1C (configuration not stated),6,3629,-0.9,-29,-4,nt,nt
CCOCCSc1nc2c(c(-c3cccs3)c1C#N)CC/C2=C/c1cccs1,8,2450,-0.1,-18,-3,-6,-3
O=c1c(C(c2ccc(Cl)cc2)c2c(O)nc3n(c2=O)CCCS3)c(O)nc2n1CCCS2,2,3586,1.8,-21,-2,-11,-12
CN(C(=O)COC(=O)/C=C/c1cccs1)C1CCCCC1,3,2919,3.8,-26,nt,2,-1
CC(C)Cn1c(SCC(=O)N2CCCCC2)nc2ccccc2c1=O,2,8807,2.0,-24,15,10,11
CCOC(=O)C1=C(C)NC(=S)NC1c1ccc(OC(=O)c2ccco2)cc1 (configuration not stated),-1,10455,3.6,-11,-4,4,1

Later entries
Every second line gives: ugtP null kill	Bead autofluor	RN4220 kill	PrP 5UTR inh	BJeLR lethal	Mtb hypoxia rep	Mtb hypoxia rep growth
> Cc1ccc2c(c1)c1c(n2CC(O)Cn2nc(C)c(Br)c2C)CCCC1 (configuration not stated)
 : -36	?	-3.3	-21	0	-3	-3
> CC(=NNc1ccc(C(=O)O)cc1)c1ccc(S(=O)(=O)NCc2ccco2)cc1
 : 24	nt	9.3	nt	nt	5	6
> O=[N+]([O-])c1ccccc1Oc1ncccc1[N+](=O)[O-]
 : nt	4072	nt	-10	-7	nt	nt
> CC(C)N(Cc1c(O)ccc2c(=O)c(-c3ccc(Cl)cc3)coc12)C(C)C
 : -5	4336	1.2	-12	-6	8	-3
> Cc1ccc2nc(N/N=C/c3ccco3)cc(C)c2c1
 : nt	2833	nt	-43	5	nt	nt
> Cc1nn(-c2ccccc2)c(C)c1C=Nn1c(-c2ccncc2)n[nH]c1=S
 : 9	nt	6.4	nt	nt	9	3
> COc1ccccc1C(=O)COC(=O)c1c(-c2ccccc2)noc1C
 : 1	nt	1.9	5	-5	-7	13
> O=C(Nc1ccc(S(=O)(=O)N2CCCCCC2)cc1)C1CCCO1 (configuration not stated)
 : 2	3430	3.0	-5	-2	-6	4
> O=C(Nc1ccc2ncccc2c1)c1cc(Cl)ccc1Cl
 : 5	3743	3.4	-38	6	5	3
> O=[N+]([O-])c1ccccc1C=NNc1nnc(-c2ccccc2)c(-c2ccccc2)n1
 : -4	nt	5.0	nt	nt	-1	9
> NC(N)=Nc1nc(-c2ccccc2)c2ccccc2n1
 : 2	4374	1.6	-25	15	7	5
> COc1ccc2c(c1)C1=NN(C(C)=CC(C)=O)C(c3cccc(F)c3)C1CC2 (configuration not stated)
 : -8	nt	-0.8	nt	nt	-9	9
> O=C(Nc1cccc2ccccc12)c1ccc([N+](=O)[O-])cc1
 : 4	4203	5.2	-40	-5	6	7
> CCCS(=O)(=O)c1c(S(=O)(=O)CCC)c2c(C)cccn2c1C(=O)N/N=C/c1cc(O)cc(O)c1
 : nt	4480	nt	-4	35	nt	nt
> CCCCNC(=O)Nc1ccccc1Br
 : nt	2100	nt	-15	1	nt	nt
> C=CCn1c(SCC(=O)Nc2sccc2C(N)=O)nc2ccccc2c1=O
 : -9	2393	3.0	-6	-7	4	4
> CC(C)(CNC(=O)c1cccc(S(=O)(=O)Nc2ccc(Br)cc2)c1)N1CCOCC1
 : 4	nt	5.8	-7	9	2	5
> Cc1cc(C(=O)O)ccc1NCc1cccnc1
 : 12	3993	1.2	-25	-7	9	15
> O=C(CN1CCC(O)(c2ccccc2F)CC1)NCCc1c[nH]c2ccccc12
 : 5	6873	7.1	-16	-5	4	5
> CCC(C)(C(=O)NC1CCCC1)N(C(=O)CNC(=O)c1ccccc1)c1c(C)n(C)n(-c2ccccc2)c1=O (configuration not stated)
 : 17	4134	4.5	-3	-1	7	2

Carrying on.
Every second line gives: ugtP null kill	Bead autofluor	RN4220 kill	PrP 5UTR inh	BJeLR lethal	Mtb hypoxia rep	Mtb hypoxia rep growth
> CC(C)(C)OC(=O)NCCCCCNC(=O)c1[nH]cnc1C(=O)Nc1cccc(Cl)c1
 : 8	3741	7.5	-6	nt	1	-1
> C=CCn1c(=O)c(C=Nc2cccnc2Cl)c(O)n(CCCC)c1=O
 : 15	2532	4.9	-13	6	13	9
> O=C1NC(c2ccc(Cl)cc2)=COc2ccccc21
 : -2	3955	-8.6	-5	10	-14	2
> O=[N+]([O-])c1ccc(Cl)c2c1C1C=CCC1C(c1ccccn1)N2 (configuration not stated)
 : -4	2273	5.6	-11	4	11	8
> Nc1nnc(SCC(=O)Nc2ccc3c(c2)OCCO3)s1
 : 8	17217*	4.5	-10	-6	9	2
> Cc1ccc(N=CC2=C(O)CC(c3ccc(Cl)cc3)CC2=O)cc1 (configuration not stated)
 : 8	12057	-1.8	-24	-4	4	2
> CCc1ccccc1NC(=O)NC(C(=O)O)C(C)C (configuration not stated)
 : 7	nt	4.8	nt	nt	12	6
> CCN1C(=O)[C@H]2[C@@H](c3ccc(-c4cccc(Cl)c4)cc3)N[C@@](Cc3ccccc3)(C(=O)OC)[C@H]2C1=O
 : nt	5664	nt	-10	6	nt	nt
> COC(=O)c1c(NC(=O)C2CCCCC2)sc2c1CC(C)(C)NC2(C)C
 : 4	5891	-2.4	-36	22	5	-2
> Cc1ccc(CNC(=O)CNC(=O)[C@@H]2Cc3ccccc3CN2)cc1
 : -2	3936	-0.4	-1	3	8	1
> Cn1c(SCC(=O)N/N=C/c2ccccn2)nnc1-c1ccccc1
 : nt	4104	nt	-26	-1	nt	nt
> COC(=O)CN(c1cccc(C)c1)S(=O)(=O)c1ccccc1
 : 8	6790	8.6	-8	-1	6	2
> Nc1ccc(C(=O)NCCCSc2ccccc2)cc1[N+](=O)[O-]
 : -5	5571	4.9	0	4	1	1
> Cc1cc(C)c(NC(=O)COC(=O)C23CC4CC(CC(O)(C4)C2)C3)c(Cl)c1
 : -3	3355	3.9	-15	nt	3	-3
> CN(Cc1ccccc1)C(=S)Nc1cccnc1
 : 4	4062	2.4	-14	-2	-7	-8

Source: PubChem BioAssay (several laboratories)
